ClpP mod = qHTS Assay for Activators of ClpP; purified B. subtilis ClpP, FRET peptide cleavage, 20 min; AID 651965, 2013; 340,000 tested, 1.9% active; Potency, µM (highest dose often 57.5 µM), for inactives: at the top dose activity change, negative = active; active = well fitted falling curve with a large enough effect; inconclusive = small, poorly fitted or top-dose-only effect; inactive = no such curve, though single readings can be large or run the other way; note: potency is the fitted concentration of half-maximal effect; the source files actives as falling curves though it sought activators and does not explain the sign; nearly all actives have a fitted effect of over 65% in size; many hits overshoot -100%
Target sequence (P80244 whole entry, looked up): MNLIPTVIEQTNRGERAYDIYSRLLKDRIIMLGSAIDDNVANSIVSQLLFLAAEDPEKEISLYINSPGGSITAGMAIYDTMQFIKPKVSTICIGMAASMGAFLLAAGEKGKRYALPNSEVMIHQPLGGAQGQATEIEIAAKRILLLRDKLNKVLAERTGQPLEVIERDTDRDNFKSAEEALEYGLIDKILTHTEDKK
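Purified B. subtilis ClpP, 10 microg/mL final in Tris/HCl pH8 with KCl, BSA, glycerol and Tween-20, cleaved an Abz/nitrotyrosine-quenched decapeptide. Fluorescence (ex 320, em 430) was read at 0 and 20 min at room temperature. Delta was normalized to 5.8 microM ADEP and DMSO/no-enzyme controls.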
CtBP-E1A inh = CtBP/E1A binding inhibition; activity change, % (no concentration beside the values); 340,000 tested, 0.49% active; AlphaScreen GST-E1A/His-CtBP binding, 1536-well; active compounds read low; control for the full effect not named in the record; in the data active means activity change below about -65%; inconclusive means about -30% to -65%; inactive means above about -30%; note: % is set by controls: 0 for no effect and ±100 for the full control effect
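Steps: dispense buffer (Tris pH 8.0, NaCl 300 mM, TCEP 1 mM, BSA, Tween 20); add 5X protein mix (GST-E1A, His-CtBP, 125 nM each); pin 23 nL compound; 2 h at 37 °C, dark; add 5X beads (50 ug/mL); 1 h; read.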
gsp agonist = agonists of gsp mutant (McCune-Albright syndrome); gsp mutant cells, cAMP HTRF, 30 min; control for the full effect not named in the record; Potency, µM (highest dose often 76.9 µM), without a hit: at the top dose activation (cAMP increase), usual class: activators; 340,000 tested, 0.13% active; active = well fitted activation curve with a large enough effect; inconclusive = small, poorly fitted or top-dose-only effect, or another doubt; inactive = no such curve, though single readings can be large or run the other way; cell line not stated here;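 note: phosphodiesterase inhibitor Ro 20-1724 added with compounds to block cAMP breakdown; potency is the fitted concentration of half-maximal effect; nearly all actives have a fitted effect of over 60% in size; about a fifth of the inactives were tested at one dose only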
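Cells stably selected in G418 were plated at 2000/well, grown 16-24 hr, then given compounds in DMSO with the PDE inhibitor […] (300 uM solution added) for 30 min at 37C; cAMP was read by HTRF.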
gsp antagonist = antagonists of gsp mutant (McCune-Albright syndrome) | gsp-mutant cells, cAMP HTRF, 30 min; control for the full effect not named in the record | Potency, µM (doses to about 76.9 µM), inactives show top-dose activity change, negative = inhibition, most hits filed as inhibitors | 340,000 tested, 0.4% active | AID 624288; active = falling curve of any shape with a large fitted effect; inconclusive = falling curve, mostly with a smaller effect; inactive = flat or rising curve; cell line not stated here;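 note: intracellular cAMP measured with PDE inhibitor Ro 20-1724 present during compound exposure; potency is the fitted concentration of half-maximal effect; % is set by controls: 0 for no effect and ±100 for the full control effect; nearly all actives have a fitted effect of over 65% in size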
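HTRF cAMP measurement after 30 min RT detection following 30 min, 37C compound treatment alongside […] (added as 300 uM solution) in G418-selected cells seeded at 2000/well and grown 16–24 h.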
TRPV1 PAM = enhances activation of the human vanilloid receptor TRPV1 | TRPV1-expressing cells, Fluo-8 calcium influx, capsaicin EC20 potentiation; host cell line not named in the record; control for the full effect not named in the record | potentiation, % at 8.33 µM | 320,000 tested, 0.02% active | AID 540277; active means potentiation above 80%; inconclusive means 30% to 80%; inactive means below 30%; note: 0% is about no effect
Target sequence (Q8NER1 whole entry, looked up): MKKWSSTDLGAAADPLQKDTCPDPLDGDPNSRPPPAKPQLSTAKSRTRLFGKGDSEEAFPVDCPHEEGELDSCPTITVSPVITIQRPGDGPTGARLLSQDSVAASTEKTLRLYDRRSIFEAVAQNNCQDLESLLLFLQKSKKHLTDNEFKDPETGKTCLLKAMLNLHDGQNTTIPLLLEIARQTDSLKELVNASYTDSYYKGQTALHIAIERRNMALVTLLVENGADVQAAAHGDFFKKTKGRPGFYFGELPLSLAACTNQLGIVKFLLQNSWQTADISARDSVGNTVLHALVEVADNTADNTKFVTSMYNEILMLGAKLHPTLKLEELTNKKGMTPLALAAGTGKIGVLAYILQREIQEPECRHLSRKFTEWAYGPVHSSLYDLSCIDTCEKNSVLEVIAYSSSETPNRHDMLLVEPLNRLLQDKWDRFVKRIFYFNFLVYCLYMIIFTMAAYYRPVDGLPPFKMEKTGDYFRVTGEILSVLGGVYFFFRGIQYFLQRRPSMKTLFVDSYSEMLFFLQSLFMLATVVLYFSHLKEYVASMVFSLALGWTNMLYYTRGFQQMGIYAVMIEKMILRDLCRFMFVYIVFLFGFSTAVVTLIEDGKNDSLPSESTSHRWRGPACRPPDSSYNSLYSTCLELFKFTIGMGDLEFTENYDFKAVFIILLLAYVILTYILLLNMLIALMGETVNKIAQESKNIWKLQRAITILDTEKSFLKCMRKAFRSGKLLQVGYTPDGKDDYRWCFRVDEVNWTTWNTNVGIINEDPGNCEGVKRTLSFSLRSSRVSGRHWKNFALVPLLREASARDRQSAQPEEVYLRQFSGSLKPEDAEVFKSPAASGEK
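TRPV1-expressing cells were cultured overnight at 35.5C and loaded with Fluo-8 calcium dye for 40 to 90 min at room temperature. After a 10 s baseline, compound was added and calcium influx was read kinetically for 3 min (ex 480/em 520 nm).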
Menin MLL FP FL = inhibitors of human menin-MLL interaction, wild-type MLL peptide | Fluorescence polarization, fluorescein-MLL peptide displacement from menin | FP activity change, % at 61.4 µM | AID 1766 | 290,000 tested, under 10 active; inconclusive = falling polarisation curve, or a change in total fluorescence; inactive = total fluorescence flat and polarisation flat or rising; no compound was filed as active; the % refers to the polarisation; negative = inhibition;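 note: % of control where 0% means no effect; inhibitors lower the polarisation; unlabelled MLL peptide was the positive control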
Sfp PPTase inh = blocks B. subtilis Sfp PPTase activity; Q9F4F7; Biochemical Sfp PPTase activity, qHTS; Potency, µM, for inactives: max response, negative = inhibition, usual class: inhibitors; 310,000 tested, 3.5% active; AID 1490; active = well fitted inhibition curve with a large enough effect; inconclusive = small, poorly fitted or top-dose-only effect, or another doubt; inactive = no such curve, though single readings can be large or run the other way;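 note: the enzyme is Sfp with the accession as filed and its product quenches rhodamine fluorescence; potency is the fitted concentration of half-maximal effect; 0% = enzyme reaction without inhibitor and -100% = no enzyme wells; top concentration of the series not given in the record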
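With Hepes-Na pH 7.6 buffer containing 10 mM MgCl2, Sfp (15 nM) modified BHQ-2-YbbR (12.5 uM) using rhodamine-CoA (5 uM). Two reads 30 minutes apart at 525/598 nm yielded each well's rate.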
Active calls of the source: *; ? = inconclusive; nt = not tested or not shown; [ ] = dose if it differs, or a comment. Not a hit list. Share with any hit: about 5.3%.

structure | TRPV1 PAM | ClpP mod | Sfp PPTase inh | Menin MLL FP FL | CtBP-E1A inh | gsp agonist | gsp antagonist
CCCn1cnc2scc(-c3ccc(C)c(C)c3)c2c1=O | -7 | nt | -2% | 2.4 | 13 | -45%[inhibitor] | -13%
CCc1cccc(C)c1NC(=S)NCC(c1cccnc1)N(C)C (stereo not given) | 10 | nt | 6% | 1.3 | 5 | 14%[15.4 µM] | -17%
CSc1ccc(S(=O)(=O)NCc2ccc(Cl)cc2Cl)cc1 | -14 | -2.7% | 1% | -1.8 | 7 | -36% | -6%
C/C(=N\NC(=O)c1nnn(-c2nonc2N)c1CSc1ccccc1)c1cccnc1 | 17 | -3.1% | 4% | nt | nt | -39%[inhibitor] | 3%
O=C(CSc1nc2cccnc2n1Cc1ccccc1)NCc1ccco1 | -11 | -2.9% | ? | 0.6 | -2 | -42%[inhibitor] | 6%
O=C(NC1CCCc2ccccc21)c1cc(S(=O)(=O)N2CCOCC2)ccc1F (stereo not given) | -11 | 2.2% | -6% | 0.3 | 6 | 13% | -3%
Cc1ccc(C(=O)C(OC(=O)CN2C(=O)c3ccccc3C2=O)c2ccccc2)cc1C (stereo not given) | -1 | 0.7% | 9% | 3.8 | 0 | -1% | 1%
O=C(Nc1nc2ccccc2[nH]1)c1cccs1 | 0 | -3.3% | 13% | 3.2 | 6 | 3% | -14%

Whole records from above:
`CCCn1cnc2scc(-c3ccc(C)c(C)c3)c2c1=O` is listed as TRPV1 PAM: -7; ClpP mod: nt; Sfp PPTase inh: -2%; Menin MLL FP FL: 2.4; CtBP-E1A inh: 13; gsp agonist: -45%[inhibitor]; gsp antagonist: -13%
`O=C(NC1CCCc2ccccc21)c1cc(S(=O)(=O)N2CCOCC2)ccc1F` (stereo not given) is listed as TRPV1 PAM: -11; ClpP mod: 2.2%; Sfp PPTase inh: -6%; Menin MLL FP FL: 0.3; CtBP-E1A inh: 6; gsp agonist: 13%; gsp antagonist: -3%

Remaining list, next part:
structure | TRPV1 PAM | ClpP mod | Sfp PPTase inh | Menin MLL FP FL | CtBP-E1A inh | gsp agonist | gsp antagonist
CCN1CCN(C(=O)CN(c2ccccc2C)S(C)(=O)=O)CC1 | 27 | 1.1% | 17% | 4.2 | 4 | 1% | ?
CCN(Cc1ccccc1)C(=O)CSc1nc(C)cc(=O)[nH]1 | 10 | nt | 4% | 6.2 | 0 | -30%[inhibitor] | -4%
CCCN(CC(=O)Nc1cc(Cl)ccc1Cl)C(=O)c1ccccc1SCC(=O)N1CCCC1 | 1 | -1.2% | nt | nt | 8 | 26% | -17%
Cc1ccc(N(C=NC#N)CC(=O)N2CCN(c3ccccc3)CC2)cc1 | -5 | -0.8% | -4% | 3.6 | 2 | -1% | -11%
O=C(/C=C/c1ccccc1[N+](=O)[O-])NC1CCCC1 | 0 | nt | -15% | 3.1 | 5 | 0%[15.4 µM] | 0%
CC(C)(C#CC(O)(c1ccccc1)c1ccccc1)N1CCCCC1 | -8 | -1.7% | 7% | -0.7 | nt | -21% | 2%
Cc1ccccc1NC(=S)N/N=C/C(C)c1ccccc1 (stereo not given) | -12 | 2.0% | -13% | -0.9 | 3 | ? | 9%
Cn1c(CNC(=O)c2ccccc2F)nnc1SCc1ccc(F)cc1 | 5 | -2.8% | -15% | -2.1 | nt | -4% | -4%
CCCN(CCC)CCCn1c(=O)[nH]c2ccccc21 | 4 | nt | 4% | 4.6 | 4 | -1% | -6%
COCCn1c(SCCCC(=O)c2ccc(Br)cc2)nnc1-c1ccncc1 | -4 | ? | 11% | -0.2 | 6 | 15% | -19%
O=C(O)/C(=C\c1cccc(F)c1)c1ccc(S(=O)(=O)N2CCCCC2)s1 | 21 | 170% | -28% | 0.9 | -6 | ? | -28%
O=C(CSc1ccc(-c2ccco2)nn1)NCCc1ccccc1 | -21 | nt | 32µM* | 4.3 | 1 | ? | 3%
COc1cccc(C(=O)Oc2cc3c4c(c2)C(C)=CC(C)(C)N4C(=O)C3=O)c1 | -31 | 1.2% | 6% | 2.5 | 9 | 1% | 7%
CCOc1ccc2nc(NC(=O)COc3ccc(N(C)S(=O)(=O)c4ccc(C)cc4)cc3)sc2c1 | -2 | nt | -12% | -3.6 | 5 | 16%[15.4 µM] | -1%
COc1cc(OC)c(-c2nn3c(C4CCCCC4)nnc3s2)cc1OC | -2 | ? | 1% | 2.9 | -5 | 37% | -14%
CCO[C@H]1OC(C(=O)NCc2nc3ccccc3[nH]2)=C[C@@H](C)[C@@H]1CCCO | 2 | -2.2% | -1% | -2.5 | 3 | nt | 10%
O=C(CCSc1nnc(-c2ccco2)o1)Nc1ccc(Cl)cc1 | -8 | 2.5% | -4% | 0.5 | 2 | 1% | -2%
Cc1ccc(CN2CC(C(=O)NC3CCCC(C)C3C)CC2=O)cc1 (stereo not given) | 3 | 2.4% | nt | nt | 1 | -5% | 4%
CCCCCCC1(C)NC(=S)N(c2ccccc2)N1 (stereo not given) | 10 | nt | ? | 2.1 | 6 | -1%[15.4 µM] | 9%
O=C(CCC1CCCCC1)NCc1ccc(F)cc1 | 7 | 0.9% | 6% | -2.3 | 1 | 11% | -1%
Cc1ccc2nc(NC(=S)NC(=O)c3ccco3)sc2c1 | 1 | 1.6% | ? | 0.2 | -3 | ? | 13%
O=C(NCCc1cccc(C(F)(F)F)c1)C1CCC(=O)N(C2CC2)C1 (stereo not given) | 1 | -2.7% | 15% | nt | -5 | -7% | 19%
Cc1noc(C)c1S(=O)(=O)N(C)C[C@H]1Oc2ccc(NC(=O)C3CCCCC3)cc2C(=O)N([C@H](C)CO)C[C@@H]1C | nt | 0.5% | nt | nt | 3 | nt | 5%
Cc1ccc(S(=O)(=O)N2CCCCC2)cc1NC(=O)c1ccc(Br)o1 | 1 | 3.6% | nt | nt | -18 | -30% | -11%
c1ccc(Nc2nc(NCC3CCCO3)c3ccccc3n2)cc1 (stereo not given) | 8 | nt | ? | -2.2 | -1 | -2%[15.4 µM] | -21%
Cc1cccc(CN(CC(=O)N/N=C/c2cccs2)S(=O)(=O)c2ccc(Cl)cc2)c1 | 7 | -0.7% | 9% | -0.2 | 2 | -39%[inhibitor] | -14%
CC1CCC2(CC1)NC(=O)N(CC(=O)Nc1ccc3c(c1)OCCCO3)C2=O (stereo not given) | 8 | -0.7% | nt | nt | -1 | -8% | 6%
Cc1c(OCC(=O)NCc2ccccn2)ccc2c3c(c(=O)oc12)CCCC3 | 7 | 1.3% | -9% | nt | nt | -11% | -5%
CCOC(=O)CN1C(=O)C(C)(C)Oc2ccc(C(=O)Nc3ccccc3)cc21 | 0 | -2.6% | 2% | 1.8 | -9 | 17% | -17%
Cc1ccc(C)c(S(=O)(=O)N2CCN(C(=O)c3cnccn3)CC2)c1 | -22 | 0.5% | 18% | 1.7 | -1 | 15% | 4%
CC(Oc1ccc2ccc(=O)oc2c1)C(=O)NC1CC(C)(C)NC(C)(C)C1 (stereo not given) | 2 | 3.3% | 8% | 0.9 | -2 | -3% | 19%
CCCc1nc2c(s1)CCc1onc(-c3ccc(OC)cc3)c1-2 | nt | 0.2% | nt | nt | 12 | -3% | -12%
CC(C)=N/N=c1\scc(C)n1Cc1ccco1 | 8 | nt | 12% | 4.5 | -15 | -6%[15.4 µM] | nt
CC1=CCC2C(=O)N(c3ccc(Br)cc3C)C(=O)C2C1 (stereo not given) | 10 | 0.1% | 15% | -0.5 | 6 | 10% | -12%
CCN(CC)CCN(C(=O)c1ccc2c(c1)CCCC2)c1nc2cc(OC)c(OC)cc2s1 | 5 | -5.4% | -22% | 2.1 | -21 | -7% | -3%
CC(C(=O)c1ccccc1)C(O)c1ccccn1 (stereo not given) | nt | nt | nt | nt | -1 | -24% | 10%
Cc1ccc(-c2nn(-c3ccccc3)cc2CO)cc1 | 7 | ? | 5% | 0.8 | 10 | -3%[15.4 µM] | 11%
NC(=O)NC(=O)c1nccnc1C(=O)O | 1 | -0.5% | -14% | 0.6 | nt | -65%[inhibitor] | 8%
COc1ccc(-c2c(C)oc3c(CN4CCN(CCO)CC4)c(O)ccc3c2=O)cc1OC | 10 | 22µM* | 18% | 0.6 | 16 | -8% | -5%
O=C(COC(=O)c1cccs1)Nc1ccccc1 | -7 | 0.2% | 12% | 0.5 | 0 | -1% | 6%
CCCCCc1c(C)nc(Nc2nc(C)c3cc(OC)ccc3n2)[nH]c1=O | -12 | 0.2% | 16% | -1.2 | -5 | 10% | -7%
CC(C)CCNC(=O)CSc1nc2ccsc2c(=O)n1NC(=O)c1ccccc1 | 0 | 0.2% | 8% | 0.7 | -2 | 0% | -31%
Cc1ccc(P(=O)(O)c2ccc(C)cc2)cc1 | -3 | -2.6% | 12% | -0.9 | -1 | 29% | 12%
CCOC(=O)c1c(C)[nH]c(C)c1S(=O)(=O)NCCc1ccc(SC)cc1 | -6 | -1.6% | 6% | nt | nt | 2% | -5%
Cc1ccc(C(=O)OCC(=O)NCCNC(=O)COC(=O)c2ccc(C)s2)s1 | -2 | nt | nt | nt | 4 | -1%[15.4 µM] | 8%
COCCNCCCCOc1ccc(Br)cc1C | -5 | -1.4% | -20% | 4.1 | -4 | 21% | 14%
Cc1[nH]c2ccccc2c1/C=N/NC(=O)c1cccs1 | 14 | -2.7% | -22% | 13 | nt | 27% | -1%
N#CC1=C(N)Oc2cc(O)ccc2C1c1cccs1 (stereo not given) | nt | 1.1% | ? | ? | 0 | -31%[inhibitor] | -7%
O=C(Nc1ccc(Cl)cc1)/C(=C/c1cccc(O)c1)c1nc2ccccc2s1 | 2 | 0.9% | 9% | 7.4 | -1 | 13% | ?
CCCn1c(SCC(=O)Nc2sc(C)c(C)c2C(=O)OCC)nc2c1c(=O)n(C)c(=O)n2C | -1 | 1.5% | -9% | 0.3 | 3 | -2% | 1%
COc1cccc(NC(=S)C(C#N)=C2N(C)c3ccccc3N2C)c1 | 7 | -1.1% | 12% | -1.8 | -7 | 2%[15.4 µM] | 3%
CC(CCc1ccccc1)NC(=O)COC(=O)c1ccc(NC(=O)CC#N)cc1 (stereo not given) | 13 | 1.8% | 15% | 2.3 | nt | 4% | 5%
Cc1cc(C)c(C#N)c(SCC(=O)c2ccc(Cl)cc2Cl)n1 | -8 | -1.5% | 3% | -0.5 | 64 | -12% | -33%

Source: PubChem BioAssay (National Center for Advancing Translational Sciences (NCATS))
